Screening data: PubChem BioAssay, several laboratories
UCH37 DUB inh: inhibitors of human UCH37 deubiquitinase, primary screen, biochemical, Ub-AMC cleavage, fluorescence. inhibition, % (no concentration beside the values). Ubiquitin carboxyl-terminal hydrolase isozyme L5 (Homo sapiens), Q9Y5K5. hit rate 0.33% among 330,000. purified proteasome/UCH37;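 active = mean of two replicates above 20%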;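 note: 0% = compound-free wells with enzyme and 100% = wells lacking proteasome; stock transfer was 100 nL into about 20 µL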
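assay system = human UCH37 enzyme supplied as purified proteasome complex | amount = proteasome at 0.15 nM in the dispensed enzyme solution | schedule = 30 min compound-proteasome preincubation then 25 min substrate reaction, room temperature | measured by = fluorescence, ex 355 nm, em 460 nm | benchmarks = no-proteasome wells (full inhibition) and compound-free wells (no inhibition)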
Ecoli rRNA inh: reduced GFP signal of wild-type E. coli, primary screen, bacterial rRNA inhibitor project, GFP/RFP fluorescence, OD600, single point; hit rate 1.6% among 350,000; E. coli WT GFP vs humanized-ribosome RFP mutants, 24 h; active compounds read low; DMSO median 0, no signal -100; GFP signal change (wild-type ribosome), % (no concentration beside the values); AID 720706, 2013;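 active = significant combined selectivity score with lowered wild-type GFP, culture density cut under 30%, mutant RFP and density less affected; inactive = any of these conditions unmet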; note: one replicate is shown; some compounds called inactive have numbers as strong as hits
HNF4A DNA FP: change in binding of human HNF4A to DNA, primary screen, biochemical, fluorescence polarization, FITC-DNA. Hepatocyte nuclear factor 4-alpha (Homo sapiens), P41235. 1 h. activity change, % at 10 µM. hit rate 0.3% among 360,000. AID 1224865, 2016; in the data active = activity change above about 30%, passing the limit was not always enough;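 note: controls were the assay level and a saturating level of protein; the project sought stronger binding though the title names inhibitors; some compounds called inactive have numbers as strong as hits; positive values seem to mean higher polarization but the record does not say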
Target sequence (P41235 whole entry, looked up): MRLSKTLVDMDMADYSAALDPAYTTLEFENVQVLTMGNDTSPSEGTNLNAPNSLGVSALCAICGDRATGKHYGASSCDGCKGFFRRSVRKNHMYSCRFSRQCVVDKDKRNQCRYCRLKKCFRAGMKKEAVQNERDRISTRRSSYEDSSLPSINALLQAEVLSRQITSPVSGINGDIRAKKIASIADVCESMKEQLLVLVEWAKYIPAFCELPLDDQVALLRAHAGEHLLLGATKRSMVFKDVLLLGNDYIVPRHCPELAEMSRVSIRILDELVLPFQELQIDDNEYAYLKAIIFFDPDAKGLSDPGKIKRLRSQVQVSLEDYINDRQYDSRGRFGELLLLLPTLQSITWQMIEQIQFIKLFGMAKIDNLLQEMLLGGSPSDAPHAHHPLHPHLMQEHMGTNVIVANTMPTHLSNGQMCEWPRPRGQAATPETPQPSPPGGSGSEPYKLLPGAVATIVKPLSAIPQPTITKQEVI
ALR H2O2 inh: inhibitors of human ALR sulfhydryl oxidase, primary screen, biochemical, H2O2 detection, HRP-luminol luminescence, single point; FAD-linked sulfhydryl oxidase ALR (Homo sapiens), P55789; purified ALR, DTT oxidation; inhibition, % (concentration not given with the values); hit rate 3.8% among 290,000; AID 485317, 2010;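 active = mean and each replicate at 75% or more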;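 note: stock transfer was 7.5 nL into about 7.5 µL; 0% = neutral wells and 100% = wells with inactivated enzyme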
Target sequence (P55789 whole entry, looked up): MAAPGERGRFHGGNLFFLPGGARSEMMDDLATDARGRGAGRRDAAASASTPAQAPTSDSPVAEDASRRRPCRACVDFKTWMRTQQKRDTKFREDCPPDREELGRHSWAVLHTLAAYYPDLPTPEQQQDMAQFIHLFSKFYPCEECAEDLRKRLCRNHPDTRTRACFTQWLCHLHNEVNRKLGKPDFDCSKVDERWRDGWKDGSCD
FGF22 binding: binders of human FGF22 protein, primary screen, FGF22 synaptogenesis inhibitor project, biophysical, thermal shift, single point. Fibroblast growth factor 22 (Homo sapiens), Q9HCT0. recombinant FGF22 thermal shift, SYPRO orange fluorescence; percent of sucrose octasulfate shift, DMSO zero. calls only at 9.99 µM. hit rate 1.5% among 340,000. AID 651658, 2012;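 active = melting point raised past a set limit in the mean and every replicate; three in four hits are not shown here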
Target sequence (Q9HCT0 whole entry, looked up): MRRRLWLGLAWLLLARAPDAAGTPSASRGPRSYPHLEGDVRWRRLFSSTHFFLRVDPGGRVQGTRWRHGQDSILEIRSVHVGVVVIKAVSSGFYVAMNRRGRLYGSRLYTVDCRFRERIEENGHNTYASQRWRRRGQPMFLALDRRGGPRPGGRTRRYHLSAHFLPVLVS
B2AR ag: beta2AR agonists driving receptor internalization, primary screen, cell-based, FAP fluorogen, flow cytometry; Beta-2 adrenergic receptor (Homo sapiens), P07550; Am2.2-beta2AR cells; reference of the scale not given here; response, % (no concentration beside the values); hit rate 0.43% among 340,000;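 active = response above a set limit, near 3 SD of response in nonfluorescent compounds, cut at about 42% in these data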;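 note: stock transfer was 100 nL into about 11 µL; a reference agonist was the positive control; negative values mostly stem from fluorescent compounds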
Ecoli growth: E. coli growth inhibition, primary screen, OD600; Escherichia coli growth, 23 h; active compounds read low; OD600 absorbance (no concentration beside the values); hit rate 0.21% among 330,000; AID 1053175, 2014;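 active = OD600 absorbance below the run mean of sample wells minus 3.6 SD, in any replicate, cut at about 0.56 in these data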;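 note: stock transfer was 300 nL into about 60 µL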
Ecoli rRNA inh OD600: recorded beside Ecoli rRNA inh, whose call it bears; OD600 change, %; measured here: OD600 growth;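 optical density of the mix in the first replicate; 0 = DMSO median and -100 = no signal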
Ecoli rRNA inh RFP: recorded beside Ecoli rRNA inh, whose call it bears; RFP signal change, %; measured here: RFP humanized mutant strains;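 first replicate; 0 = DMSO median and -100 = no signal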
Active calls of the source: *; i = inactive; / = not tested or not shown; ! = repeats disagree. A portion of the library; the hit share may differ from the screen's.

SMILES	UCH37 DUB inh	Ecoli rRNA inh	Ecoli rRNA inh OD600	Ecoli rRNA inh RFP	HNF4A DNA FP	ALR H2O2 inh	FGF22 binding	B2AR ag	Ecoli growth
O=C(COc1ccc(-n2cnnn2)cc1)Nc1cccc(Cl)c1Cl	2.2	9	7	8.6	-10	-1	i	4	0.65
CCNc1nnc(CCn2nc(C)c(Br)c2C)s1	1.0	6	11	4.1	-1.9	5	i	2	0.66
O=S(=O)(c1ccccc1)n1cc(-c2cccc3nccn23)c2ccccc21	/	-18	-42	0.3	-1.2	/	i	/	/
COc1cccc(-c2nnc(NC(=O)c3ccc(S(=O)(=O)N4CCOCC4)cc3)o2)c1	4.0	/	/	/	2.1	6	/	8	0.69
CCOC(=O)C1=C(c2ccccc2)Nc2nc(C)nn2C1c1cccc(OC)c1OC (stereo unspecified)	5.8	/	/	/	-0.1	13	/	-3	0.7
Cc1ccccc1NC(=O)C1CCCN1S(=O)(=O)c1ccc2c(c1)n(C)c(=O)c(=O)n2C (stereo unspecified)	1.4	9	10	-0.5	2.3	1	i	-2	0.71
CN(C)S(=O)(=O)N(CC(=O)Nc1ccc(S(=O)(=O)N2CCCC2)cc1)c1ccccc1	-2.5	-4	-6	2.6	4.5	-8	i	-1	0.71
Cc1cccc(NC(=O)COC(=O)c2cccc(S(=O)(=O)N3CCCCCC3)c2)c1	4.2	-9	-7	4.8	-1.4	-2	i	3	0.7
COc1cccc(N(C(=O)Cn2nnc(-c3ccc(C)cc3)n2)C(C(=O)NC(C)(C)C)c2c[nH]c3ccccc23)c1 (stereo unspecified)	2.8	/	/	/	-1.0	4	/	5	0.7
CCNS(=O)(=O)c1ccc(Br)c(OC)c1	0.5	1	-4	-3.9	-0.9	-2	i	1	0.67
COc1cc(OC)cc(-n2nnnc2SCC(=O)NCc2cccs2)c1	1.0	-10	-9	-3.7	-0.2	/	i	0	0.66
COc1cccc(C(=O)Nc2ccc3c(c2)OC[C@H](C)N(CCc2ccccc2)C[C@@H](C)[C@@H](OC)CN(C)C3=O)c1	/	-25*!	-11*!	5.1*!	2.4	/	i	/	/
Cc1ccc(S(=O)(=O)n2cc(-c3ccccc3)c3ccccc32)cc1	1.6	4	-2	-12	2.7	-17	i	23	/
COc1ccc(NC(=S)NNC(=O)C(C)n2nc(C)c([N+](=O)[O-])c2C)cc1 (stereo unspecified)	4.0	-7	-7	5.6	3.0	55	i	7	0.7
O=C(NNC1=NC2(CCCC2)Cc2ccccc21)c1cccnc1	7.0	/	/	/	2.8	4	/	-7	0.69
COCCn1c(C)cc(/C=C2/NC(=O)N(Cc3ccc(C)cc3)C2=O)c1C	-3.7	7	11	14	2.2	-9	i	1	0.69
Cc1noc(C)c1COC(=O)c1cc(S(=O)(=O)N2CCOCC2)ccc1Cl	0.0	-7	-9	4.7	-4.1	-3	i	-2	0.68
O=S(=O)(c1cccs1)N1CCN(S(=O)(=O)c2cccs2)CC1	2.3	6	7	-0.2	3.5	-4	i	-5	0.72
COc1ccc(CCNC(=O)CN2CCN(S(=O)(=O)c3ccc(Cl)cc3)CC2)cc1OC	1.4	/	/	/	-1.8	-6	/	8	0.68
CCOC(=O)C(=CNc1nc2ccc(C(=O)OCC)cc2s1)C(=O)OCC	-50	15	22	3.4	-0.7	-4	i	6	0.64
CCN(CC)CC(C)(C)C(=O)/C=C/c1ccc(/C=C/C(=O)C(C)(C)CN(CC)CC)cc1	/	-14*	9.3*	3.8*	0.6	/	i	46*	/
Nc1c(C(=O)CSc2nnc(Cc3ccccc3)o2)c(=O)[nH]c(=O)n1C1CC1	-1.7	6	13	-2.1	-1.1	-2	i	19	0.71
O=C(COC(=O)C1CC(=O)N(Cc2ccco2)C1)Nc1ccc(F)cc1F (stereo unspecified)	-0.8	10	14	-1.1	1.8	-3	i	1	0.66
O=C(CN1C(=O)NC2(CCOc3ccccc32)C1=O)NCc1ccccc1 (stereo unspecified)	3.6	-3	3	-0.1	-1.4	/	i	-3	0.69
S=c1[nH]nc(-c2ccco2)n1-c1ccccc1Cl	2.4	15	-4	-1.6	-1.0	32	i	1	0.72
Nc1ccc(OCc2ccccc2)cc1[N+](=O)[O-]	3.5	-14	16	3.8	-1.2	/	i	-2	0.69
O=C(C1CCC(CNS(=O)(=O)c2cccc3cccnc23)CC1)N1CCc2ccccc21 (stereo unspecified)	2.5	-16	-21	5.7	0.5	43	i	-14	0.73
Cc1ccc(CNC(=O)c2ccc(S(=O)(=O)N3CCCCC3)cc2)cc1	-0.3	3	12	-1.5	-0.7	/	i	-1	0.63
CCOc1ccc(S(=O)(=O)N(CC(=O)NCC(F)(F)F)Cc2ccco2)cc1	-0.4	-5	8	0.6	-2.6	-3	i	-6	0.63
COC(=O)c1sc2ccccc2c1N	-346	2	-3	-6.6	-4.0	/	i	3	0.7
CC(C(=O)N1CCOCC1)n1cc([N+](=O)[O-])cn1 (stereo unspecified)	1.4	14	5	3.1	0.8	-12	i	3	0.73
O=C(O)CCC(=O)Nc1cccc(C(=O)c2ccccc2)c1	0.9	-1	5	-1.2	1.0	0	i	-7	0.67
CCN(CC)c1ccc(/C=C/C(=O)C2C(=O)C=C(C)OC2=O)cc1 (stereo unspecified)	2.9	46	1	48	76	99*	i	-75	/
COC(=O)c1cc(S(=O)(=O)Nc2ccc(C)cn2)c[nH]1	-25	10	10	0.1	-0.7	-10	i	-1	0.68
C=C(C)Cn1c(CNC(C)=O)nc2ccccc21	3.8	0	7	-1.9	0.0	/	i	1	0.72
Cc1ccc(CNC(=O)C2CCC(=O)N2C(C)C)cc1 (stereo unspecified)	2.6	14	6	-2.3	4.4	-2	i	-1	0.69
Cc1cccc(NC(=O)c2cnccn2)c1	2.6	-3	-7	-0.1	-1.2	-7	i	4	0.65
CCC1CCc2sc(C(=O)NCC3CCCO3)cc2C1 (stereo unspecified)	1.0	-3	-22	-4.1	-0.8	4	i	-6	0.7
O=C(Nc1ccc(N2CCOCC2)cc1)c1c(F)cccc1Cl	4.4	12	-2	2.9	-2.3	/	i	0	0.7
Cc1ccccc1C(=O)NC1CCS(=O)(=O)C1 (stereo unspecified)	0.0	/	/	/	-2.9	-5	/	4	0.76
Cc1ccc(OCC(=O)N(Cc2ccc(N(C)C)cc2)C2CCS(=O)(=O)C2)cc1 (stereo unspecified)	4.4	/	/	/	1.4	10	/	-5	0.68
CC(OC(=O)Cn1cnc2ccccc2c1=O)C(=O)NCc1ccccc1 (stereo unspecified)	-2.7	10	14	-0.6	-0.6	-25	i	11	0.62
CC(=O)N1CCc2cc(S(=O)(=O)CCC(=O)Nc3cccc(F)c3)ccc21	5.9	/	/	/	-2.9	75	/	-2	0.7
O=C(COC(=O)/C=C/c1ccc(S(=O)(=O)N2CCOCC2)cc1)NCc1ccc(F)cc1	2.5	15	18	0.4	-2.3	5	i	2	0.67
Cc1ccc(NC(=O)COC(=O)c2ccco2)cc1	5.3	24	17	6.4	-2.0	-7	i	3	0.72
CC(C)(C)SC(=O)C[C@@H]1NS(=O)(=O)OC2CCCCC21 (stereo partly specified)	5.6	5	-5	-3.6	-14	-6	i	-4	0.79
NS(=O)(=O)c1ccc(CCNC(=O)C2CCCO2)cc1 (stereo unspecified)	1.7	12	10	1.2	0.7	4	i	-6	0.68
CCn1c(CCNC(=O)c2ccc(Cl)cc2)nnc1SCC(=O)NC1CCCC1	4.3	/	/	/	1.3	-7	/	-7	0.63
COc1cc(/C=N/NC(N)=O)ccc1OCC(=O)Nc1cc(C)c(C)cc1Br	/	7	4	2.0	0.9	/	i	-3	/
O=C(CN(Cc1ccc(F)cc1)C(=O)CNS(=O)(=O)c1ccccc1)NCc1ccco1	0.7	-3	-1	-3.5	5.0	/	i	8	0.67
O=C(Nc1cccc(C(=O)O)c1)Nc1ccccc1Cl	3.3	7	2	3.1	-4.1	-18	i	3	0.63
C=CCOc1c(Br)cc(/C=C(\C#N)C(N)=O)cc1OC	-1.4	8	5	2.2	0.3	51	i	-4	0.69
CC(=O)Nc1c(C(=O)N2CCOCC2)cnn1-c1ccc(C)c(C)c1	-4.3	/	/	/	-3.1	-19	/	2	0.74
CCN(CC(=O)NCc1ccc(Cl)cc1)C(=O)C1CCN(S(=O)(=O)c2ccc(OC)c(OC)c2)CC1	2.4	6	7	2.7	2.0	1	i	-6	0.62
CCCCNC(=O)c1c(N)[nH]c(C(=O)c2ccccc2)c1-c1ccc(Cl)cc1	/	0	-1	-4.5	2.4	/	i	/	/
O=C(Nc1ccsc1C(=O)NC1CC1)c1ccccc1	3.9	/	/	/	-3.1	7	/	-9	0.72
O=C1/C(=C/c2ccco2)N=C(N2CCCCC2)N1c1ccccc1	-3.4	/	/	/	1.2	70	/	-12	/
CO/N=C/c1c(C(=O)OC)nn(-c2ccccc2)c1Cl	/	1	-5	0.1	-1.0	/	i	-3	/
Cc1cc(Br)ccc1OCC(=O)NNC(=O)Cc1ccccc1	4.7	6	11	0.4	-1.2	1	i	0	0.7
O=C(/C=C/c1ccc([N+](=O)[O-])cc1)NC1CC2CCC1C2 (stereo unspecified)	4.6	-28*	-9.7*	-3.1*	-1.4	-10	i	-2	/

Fetched by structure from the entries so far:
SMILES	UCH37 DUB inh	Ecoli rRNA inh	Ecoli rRNA inh OD600	Ecoli rRNA inh RFP	HNF4A DNA FP	ALR H2O2 inh	FGF22 binding	B2AR ag	Ecoli growth
O=C(CN(Cc1ccc(F)cc1)C(=O)CNS(=O)(=O)c1ccccc1)NCc1ccco1	0.7	-3	-1	-3.5	5.0	/	i	8	0.67
O=C1/C(=C/c2ccco2)N=C(N2CCCCC2)N1c1ccccc1	-3.4	/	/	/	1.2	70	/	-12	/
CO/N=C/c1c(C(=O)OC)nn(-c2ccccc2)c1Cl	/	1	-5	0.1	-1.0	/	i	-3	/

Later entries
SMILES	UCH37 DUB inh	Ecoli rRNA inh	Ecoli rRNA inh OD600	Ecoli rRNA inh RFP	HNF4A DNA FP	ALR H2O2 inh	FGF22 binding	B2AR ag	Ecoli growth
Cc1nn(C)c(C)c1Sc1ccccc1N	-1.3	0	-29	-5.0	11	99*	i	18	0.73
Nc1nonc1C(=O)NCCN=Cc1ccccc1O	-2.2	/	/	/	-4.0	-3	/	4	0.73
CCOC(=O)/C(=N/Nc1ccc(Br)cc1)N1CC(C)OC(C)C1 (stereo unspecified)	3.4	10	4	1.8	-1.2	/	i	10	0.67
Cn1c(CNC(=O)CNC(=O)c2cccc(Cl)c2)cc(=O)n(C)c1=O	0.2	20	12	1.3	-1.3	8	i	-3	0.66
CC(C)OC(=O)c1ccc2ccc(-c3ccccc3)nc2c1	/	-10	-1	-4.7	3.6	/	i	/	/
CS(=O)(=O)c1ccc(C(=O)OCC(=O)N2CCOCC2)cc1[N+](=O)[O-]	/	3	18	-0.1	-0.1	/	i	/	/
CCc1c(C)c2ccc(OCC(=O)OC)cc2oc1=O	-152	/	/	/	0.5	1	/	21	0.65
CC1CCCCC1NC(=O)COC(=O)c1cc(=O)[nH]c2ccccc12 (stereo unspecified)	-17	/	/	/	-1.3	-2	i	-3	0.7
O=C1CCCc2c1cc(C(=O)NCc1ccco1)c(=O)n2-c1ccc(Cl)cc1	0.6	/	/	/	2.8	/	/	2	0.7
